Vaccinia Venus: inhibitors of vaccinia virus (Venus reporter) | Vaccinia virus Venus reporter expression, fluorescence | AID 720580 | 330,000 tested, 0.46% active | Potency, µM (series often up to 36.5 µM), inactives show at the top dose activity change, negative = inhibition, hits mostly inhibitors; active means well fitted inhibition curve with a large enough effect; inconclusive means small, poorly fitted or top-dose-only effect; inactive means no such curve, though single readings can be large or run the other way; tested in A549 cells; also: nearly all actives have a fitted effect of over 30% in size; inactives centre near -10
VACV mCherry inh: inhibitors of vaccinia virus infection (mCherry reporter signal) | Vaccinia virus mCherry reporter infection, fluorescence; about a quarter of the inactives have no number | Potency, µM (top dose mostly 36.5 µM), for the others: at the top dose activity change, negative = inhibition, most hits filed as inhibitors | 310,000 tested, 0.63% active | AID 720579; active = well fitted inhibition curve with a large enough effect; inconclusive = small, poorly fitted or top-dose-only effect; inactive = no such curve, though single readings can be large or run the other way; tested in A549 cells; also: nearly all actives have a fitted effect of over 35% in size; inactives centre near -10
Active calls of the source: *; i = inactive; u = inconclusive; x = no result given; & = joins results of further samples; [ ] = another dose, or the depositor's remark. % is scaled to controls: 0 for no effect and ±100 for the full control effect; potency is read from the fitted curve at half-maximal effect.

| Structure | VACV mCherry inh | Vaccinia Venus |
| --- | --- | --- |
| CC(CCc1ccccc1)NC(=O)CCN1N=C(c2ccccc2)CCC1=O (centres undefined) | i | -4% |
| CC1C(=O)N2CCCc3cc(S(=O)(=O)N4CCCCC4)cc1c32 (centres undefined) | i | -12% |
| CCOc1cccc(C(=O)N(Cc2ccc(F)cc2)Cc2ccco2)c1 | -9% | -13% |
| CC(C)CC(=O)NC(=S)Nc1ccc(Cl)cn1 | -3% | -10% |
| COC(=O)c1ccccc1CC1SC(N)=NC1=O (centres undefined) | 5% | 7% |
| O=C(NCC1CCCO1)C1CCN(CC2CCCCC2)CC1 (centres undefined) | x | 1% |
| Cc1ccc(-c2nnc(SCC(=O)NC3CC3)o2)cc1 | i | -23% |
| O=C1CSC(=S)N1Nc1ccccc1 | -10% | 180%[activator] |
| Cc1ccc(N(CC(=O)NCC2CCCO2)C(=O)Cn2nnc(-c3cccs3)n2)cc1 (centres undefined) | -14% | -1% |
| CCOC(=O)Cc1cc(=O)n2[nH]c(-c3ccc(Cl)cc3)cc2n1 | -22% | 0% |
| COc1cc(C(C)=O)ccc1OCC(=O)Nc1ccccc1N1CCCC1 | -20% | -10% |
| C[C@H](CO)N1C[C@H](C)[C@@H](CN(C)C(=O)Nc2ccccc2)Oc2ccc(NC(=O)Nc3ccccc3)cc2C1=O | i | 2% |
| O=C(Cn1cnc2ccccc2c1=O)Nc1ccccc1N1CCOCC1 | 6% | -5% |
| COCC(=O)Nc1cc(C(=O)N2CCc3c(Cl)cccc3C2)c2c(c1)nc(-c1ccncc1)n2C | i | 0% |
| Cc1cc(C)cc(N(CC(=O)NCC2CCCO2)C(=O)CCC(=O)Nc2cc(C)on2)c1 (centres undefined) | -13% | -3% |
| CC(C)C(C)NC(=O)CN1C(=O)NC(c2ccccc2)(c2ccccc2)C1=O (centres undefined) | i | 0% |
| Cc1ccc(NC(=O)c2cc(C)n(-c3cccc(C)c3)c2C)cc1 | -27% | -17% |
| COc1cccc(CNC(=O)Cc2ccc(OC)c(S(=O)(=O)N3CCOCC3)c2)c1 | -15% | -11% |
| Cc1nc(Nc2ccc(S(N)(=O)=O)cc2)sc1-c1ccccc1 | u | -14% |
| CC(=O)Nc1ccc(NC(=O)COc2ccc(-c3ccc(C#N)cc3)cc2)cc1 | -16% | -4% |
| O=C(NCCCc1nc2ccccc2n1Cc1cccc(Cl)c1)c1ccco1 | -3%[7.34 µM] | -8%[7.34 µM] |
| COc1ccc(/C=N/n2nnnc2N)cc1OC | -19% | -6% |
| Cc1ccc(OCc2cccc(S(=O)(=O)N(C)C)c2)c([N+](=O)[O-])n1 | -21% | -10% |
| CNC(C)C(=O)NC(C(=O)N1CCCC1C(=O)Nc1ccc2ncccc2c1)C(C)C (centres undefined) | -16% | -11% |
| O=[N+]([O-])c1ccc(COc2ccccc2CN2CCOCC2)cc1 | u | -9% |
| COC(=O)c1ccc2c(=O)n(CCCCCC(=O)NCCc3ccccc3)c(=O)[nH]c2c1 | i | -10% |
| CN(CC(=O)Nc1ccccc1N1CCOCC1)S(=O)(=O)c1ccc(F)cc1 | i | -19% |
| COc1cccc(-c2nc(CS(=O)(=O)CC(=O)NCCc3ccc(OC)c(OC)c3)c(C)o2)c1 | -11% | -13%&-8% |
| CCC(C)NS(=O)(=O)c1ccc(NS(=O)(=O)c2ccc(F)cc2)cc1 (centres undefined) | -14% | -14% |
| CC(C)N(C)C1CCN(C(=O)Nc2ccc(Cl)c(Cl)c2)CC1 | -5% | -15% |
| COCC(C)n1c(C)cc(C(=O)COC(=O)/C=C/c2cccc(F)c2)c1C (centres undefined) | -14% | -9% |
| CCOc1ccc(CN2CCNC(=O)C2CC(=O)N(C)CC2CCOCC2)cc1 (centres undefined) | -12% | -10% |
| CCn1nccc1C(=O)Nc1cccc(C)c1C | 0% | -13% |
| N[C@H](C(=O)O)[C@H](O)C(=O)O | -13% | -9% |
| CCc1ccc(CCC(=O)Nc2nnc(CC)s2)o1 | i | -11% |
| COc1ccccc1C(=O)Nc1ccc(Cc2ccncc2)cc1 | -6% | -13% |
| CC(=O)c1sc(N/N=C\c2ccccc2O)nc1C | 5µM* | -26% |
| CCCCC[C@H](C)N1C[C@@H](COCc2ccccc2)Oc2cc(N3CCC[C@H]3C(N)=O)ccc2S1(=O)=O | -11% | -10% |
| N#CC1=C(N)C(C#N)(C#N)C(c2ccncc2)C2CN(C(=O)OCc3ccccc3)CC=C12 (centres undefined) | -4% | -14% |
| O=C(CCc1ccccc1)NNC(=O)Nc1cccc(Cl)c1 | i | -8% |
| COc1cccc(CNC(=O)CS(=O)(=O)Cc2nc(-c3ccc(C)cc3)oc2C)c1OC | -13% | u |
| O=C(NNC1=C(C(=O)C(F)(F)F)CCC1)c1ccc(Br)cc1 | u | -16% |
| O=C(NC1CCCCC1)N1Cc2cc(-c3cccc(F)c3)ccc2-n2nncc2C1 | 13% | -16% |
| COc1ccc(Cl)cc1NC(=O)COC(=O)Cc1cccs1 | -9% | -7% |
| COC(=O)c1sc(S(=O)(=O)Nc2ccc3cn[nH]c3c2)c(C(=O)OC)c1C | -11% | -8% |
| COc1ccc(C)cc1NC(=O)CN1CCN(S(=O)(=O)c2ccc(F)cc2)CC1 | -12% | -6% |
| COc1cccc(/C=N/NC(=O)CNC(=O)c2cccnc2)c1O | u | -24% |
| Cc1ccc(N/N=C2\CS(=O)(=O)N(C)c3ccsc32)cc1 | u | 1% |
| COc1cc2c(c(OC)c1OC)-c1ccc(SC)c(=O)cc1C(NC=O)CC2 (centres undefined) | u | u |
| OCC1C2c3ccccc3C(c3ccccc32)C1CO (centres undefined) | i | -1% |
| O=C(CCCN1C(=O)CCC1=O)Nc1cccc(C(F)(F)F)c1 | x | -21% |
| CS(=O)(=O)c1ccc(C2=C(CNC(=O)c3cccs3)[C@H]3CC[C@@H](C2)N3Cc2ccccc2)cc1 | -26% | -17% |
| CCOc1ccc(OCc2ccc(C(=O)N(C)c3ccccc3)o2)cc1 | -11% | -2% |
| CCc1ccc(NC(=O)c2cc(C(C)=O)n3ccccc23)cc1 | -17% | -14% |
| COCCn1c(SCC(=O)Nc2sccc2C(N)=O)nc2cc(Cl)ccc2c1=O | x | u |
| COc1cccc(C2(C)NC(=O)N(CC(=O)c3cc(C)n(C4CC4)c3C)C2=O)c1 (centres undefined) | -21% | -14% |

The listing continues.
| Structure | VACV mCherry inh | Vaccinia Venus |
| --- | --- | --- |
| COc1cccc(C(=O)NCCNC(=O)c2ccco2)c1 | -13% | -7% |
| Nc1ccn([C@@H]2O[C@H](CNCc3ccc(C#CCCO)cc3)[C@@H](O)[C@H]2O)c(=O)n1 | i | -14% |
| CN(CCc1ccccc1)C(=O)c1ccc(NC(=O)Cc2cccc(NC(=O)C3CCN(C(=O)C4CCCCC4)CC3)c2)cc1 | 2% | -8% |
| CCN(CC)C(=O)[C@H]1CC(CC(=O)NCCCn2ccnc2)C(=O)N2CCc3c([nH]c4ccccc34)[C@]12C (some centres undefined) | i | -6% |
| C#CCn1ccc(O)c(Cc2c(F)cccc2Cl)c1=O | -8% | -13% |
| CN(C)C(=O)c1cn(-c2ccccc2)nc1-c1cc2ccccc2o1 | i | -16% |
| Cc1ccc(OCC(=O)Nc2ccccc2N2CCCC2)c(C)c1 | -3% | -4% |
| CCN(CC)Cc1c(O)ccc2c(=O)c(Oc3ccccc3OC)coc12 | i | 0% |

The list goes on; it opens with the four that closed the last part.
| Structure | VACV mCherry inh | Vaccinia Venus |
| --- | --- | --- |
| C#CCn1ccc(O)c(Cc2c(F)cccc2Cl)c1=O | -8% | -13% |
| CN(C)C(=O)c1cn(-c2ccccc2)nc1-c1cc2ccccc2o1 | i | -16% |
| Cc1ccc(OCC(=O)Nc2ccccc2N2CCCC2)c(C)c1 | -3% | -4% |
| CCN(CC)Cc1c(O)ccc2c(=O)c(Oc3ccccc3OC)coc12 | i | 0% |
| Cc1nn(CC(=O)Nc2cccc(O)c2)c(=O)c2ccccc12 | i | -9% |
| COc1ccccc1C(=O)NCC(=O)NCCCN1CCOCC1 | -20% | -4% |
| C=CCN1C(=O)c2oc3ccccc3c(=O)c2C1c1ccc(O)c(OC)c1 (centres undefined) | -5% | -17% |
| O=c1cccc2c1c1cc[nH]c3ccc(=O)n2c31 | -10% | 6% |
| O=C(Nc1c2c(nn1-c1ccc(Cl)cc1)CS(=O)(=O)C2)C1CC1 | -14% | 2% |
| N#CCc1ccc(NC(=O)/C=C/c2ccc([N+](=O)[O-])o2)cc1 | 7.1µM* | u |
| Cc1ccc(Cn2ccnc2SCC(=O)Nc2nc3ccccc3s2)cc1 | i | -8% |
| COCCN1CCN(C(=O)c2cc(COc3ccc(Cl)cc3OC)on2)CC1 | i | -13% |
| CNCc1cn2cc(Cl)ccc2n1 | -3% | -5% |
| CCOC(=O)C1=C(CN2CCN(c3cccc(Cl)c3)CC2)NC(=O)NC1c1ccc(Cl)cc1 (centres undefined) | -18% | -9% |
| COc1ccc(CC(=O)Nc2ccc3c(c2)OC2(CCCC2)O3)c(OC)c1 | u | -22% |
| Cc1ccc(Cl)cc1Nc1nn2c(=O)c3ccc(C(=O)NCc4ccc(F)cc4)cc3nc2s1 | u | u |
| O=C(CN1CCN(c2ccc(O)cc2)CC1)N1CCc2ccccc21 | -18% | -16% |
| CCC(C)NC(=O)Cn1c(=O)cc(-c2ccccc2)c2c(C)nn(C)c21 (centres undefined) | -10% | -15% |
| CN(C(=O)COC(=O)c1ccc[nH]c1=O)C1CCCCC1 | i | -8% |
| COc1cc2c(C(=O)N(C)c3ccc(F)cc3)cn(C)c(=O)c2cc1OC | i | 0% |
| COc1ccccc1OCCn1c(NC(=O)c2ccccc2Cl)nc2ccccc21 | -17% | -20% |
| CC1(C)C(=O)C2(CCCC2)C(=O)OC1c1ccco1 (centres undefined) | x | -11% |
| CC(C)NC(=S)NCc1cccnc1 | -9% | -5% |
| COc1ccc(OCCNC(=O)c2ccc3nc(C)c(N(C)Cc4ccc(NC(C)=O)cc4)n3c2)cc1 | -12% | -9% |
| O=C(Nc1nnc(S(=O)(=O)N2CCCCC2)s1)c1ccccc1Br | -6%&2% | 10%&1% |
| CC(C)(C)c1ccc(C(=O)OCC(=O)Nc2cccc(S(=O)(=O)NC3=NCCC3)c2)cc1 | -3% | -15% |
| CCn1cc(C(=O)c2ccccc2)c2ccccc21 | -12% | -2% |
| COc1ccc(NS(=O)(=O)c2cccc(C(=O)N/N=C/c3ccc4c(c3)OCCO4)c2)cc1 | i | -9% |
| Cc1ccc2nc(SCC(=O)Nc3nonc3C)[nH]c2c1 | -13% | -8% |
| Cc1ccc(C(=O)NC(=S)Nc2cccc(NC(=O)c3ccccc3Cl)c2)cc1[N+](=O)[O-] | u | -19% |
| COc1ccc(CNC(=O)CCCn2c(=O)c3cccn3c3cccnc32)cc1 | -1% | -15%&-3% |
| CC12CN3CC(C)(CN(C1)C31CCOCC1)C2=O | x | -8% |
| O=C(NCCc1ccccc1F)c1cccc2cccnc12 | -9% | -1% |
| COc1cccc(C2C(C#N)=C(N)Oc3c2oc(CO)cc3=O)c1 (centres undefined) | -7% | -6% |
| CC1CCN(c2ncnc3c2cnn3-c2ccc(F)cc2)CC1 | 1% | -1% |
| COc1cc(C=C2Cc3ccccc3C2=O)cc(OC)c1OC | 7% | 3% |
| O=C(CC1c2ccccc2Oc2ccccc21)Nc1ccccc1F | i | -14% |
| Cn1c(SCC(=O)Nc2ccccc2F)nc2c(c1=O)SCC2 | -18% | -21% |
| COc1ccc(CCNC(=O)c2cc(-c3ccccc3)on2)cc1OC | -28% | -17% |
| COC(=O)C1=C(C)N(CCCC(=O)O)C(=O)NC1c1cccc(Cl)c1Cl (centres undefined) | -17% | -8% |
| CCOC(=O)[C@]12CCC=C1N(Cc1ccco1)C(=O)[C@H](CC(=O)N1CCCCC1)C2 | 19% | -2% |
| COc1ccc(-c2cc(C(=O)N3CCN(c4ccccc4)CC3)c3ccccc3n2)cc1 | u | -25% |
| CCCCn1nnnc1SCC(=O)N1CCOCC1 | 1% | 8% |
| O=C(CN1CCCSc2ccccc21)N1CCN(S(=O)(=O)c2ccccc2)CC1 | -14% | -3% |
| Fc1ccc(-c2ccc(/C=N\n3cnnc3)o2)cc1Cl | -15% | -19% |
| Cc1oc(-c2ccc(Cl)cc2)nc1CS(=O)CC(=O)NCCCN1CCCC(C)C1 (centres undefined) | -22% | u |
| Cc1cc(C)cc(NC(=O)CCCN2C(=O)COc3ccc(C)cc32)c1 | -13% | -20% |
| Cc1ccc(S(=O)(=O)Cn2nnnc2C(c2ccc(F)cc2)N2CCC(C(N)=O)CC2)cc1 (centres undefined) | -8% | -5% |
| CC(C)CC(=O)Nc1nnc(S(=O)(=O)N(C)Cc2ccc(Cl)cc2)s1 | -10% | -7% |
| Cc1nn(-c2cccc(Cl)c2)c2nc(-c3ccncc3)cc(C(=O)N3CCOCC3)c12 | -6% | -9% |
| Cc1ccc(OCCNC(=O)CCC(=O)N2CCOCC2)cc1 | u | -7% |
| COc1ccc(-n2nc(C(=O)NCC(=O)Nc3cccc(NC(C)=O)c3)c3ccccc3c2=O)cc1 | -12% | -21% |
| CNc1cncc(-c2ccccc2CO)n1 | 1% | 0% |
| COc1ccc(NS(=O)(=O)c2cc(NC(=O)c3ccc(S(=O)(=O)N(C)C)cc3)ccc2N2CCOCC2)cc1 | -1% | -15% |
| N#Cc1ccsc1NC(=O)COC(=O)c1cc2ccccc2cc1O | -21% | -9% |
| O=C(Nc1cc[c]([Sb](=[O])([OH])[OH])cc1)c1ccccc1 | -14% | -16% |

Not a hit list; overall some 0.88% were active at least once.
